Compound activity from PubChem BioAssay.
Mtb growth = M. tuberculosis H37Rv growth inhibitors, H37Rv strain (AID 1626). inhibition, % at 10 µM; hits with a dose series show IC50 in µM. 220,000 compounds, 0.95% hits. M. tuberculosis H37Rv growth inhibition; higher % means a stronger effect;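 active means confirmed in a dose series; inconclusive means inhibition above 80% but not taken into the dose series; inactive means below 80% or under 30% at every dose of the series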;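 further: bacteria incubated seven days before Alamar blue readout; 0% = bacteria only wells and 100% = bacteria with antibiotic wells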
YopH PTP inh = YopH tyrosine phosphatase inhibitors, primary screen, biochemical, fluorescence Ex485/Em525; YopH tyrosine phosphatase [Yersinia enterocolitica]; inhibition, %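 (about 10 µM by stock and volumes)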; 140,000 compounds, 0.16% hits; AID 898, 2007;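 active means inhibition of 50% or more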;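 further: controls were vehicle for no effect and minimum signal wells for full effect; inactives centre near -20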
Mtb betalactam = beta-lactam sensitization of Mtb H37Rv, H37Rv; inhibition, % at 25 µM; AID 434955, 2010; M. tuberculosis H37Rv growth with meropenem, percent inhibition; hits of this screen are not shown here; 330,000 compounds, 0.27% hits;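 active means about 74% or more and at least 40 points above the plate without the antibiotic, then above 30% in a dose series; inconclusive means first-round hits that could not be retested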;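 further: growth measured after seven days incubation then overnight dye step; 0% = bacteria only wells and 100% = bacteria with antibiotic; twin plates without the antibiotic show which effects depend on it; some results filed as inactive read as strong as hits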
RecA splice inh = Mtb RecA intein splicing inhibitors, primary screen, biochemical, fluorescence, HTS | Protein RecA (Mycobacterium tuberculosis (strain ATCC 25618 / H37Rv)), P9WHJ3 | cell-free RecA intein splicing | inhibition, %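 (about 9 µM by stock and volumes)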 | 290,000 compounds, 0.75% hits | AID 2221, 2009; in the data active means inhibition above about 30%; inconclusive means no clear call, values can overlap the other calls;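 further: 0% = vehicle wells and 100% = reference inhibitor control wells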
Target sequence (P9WHJ3 whole entry, looked up, canonical isoform): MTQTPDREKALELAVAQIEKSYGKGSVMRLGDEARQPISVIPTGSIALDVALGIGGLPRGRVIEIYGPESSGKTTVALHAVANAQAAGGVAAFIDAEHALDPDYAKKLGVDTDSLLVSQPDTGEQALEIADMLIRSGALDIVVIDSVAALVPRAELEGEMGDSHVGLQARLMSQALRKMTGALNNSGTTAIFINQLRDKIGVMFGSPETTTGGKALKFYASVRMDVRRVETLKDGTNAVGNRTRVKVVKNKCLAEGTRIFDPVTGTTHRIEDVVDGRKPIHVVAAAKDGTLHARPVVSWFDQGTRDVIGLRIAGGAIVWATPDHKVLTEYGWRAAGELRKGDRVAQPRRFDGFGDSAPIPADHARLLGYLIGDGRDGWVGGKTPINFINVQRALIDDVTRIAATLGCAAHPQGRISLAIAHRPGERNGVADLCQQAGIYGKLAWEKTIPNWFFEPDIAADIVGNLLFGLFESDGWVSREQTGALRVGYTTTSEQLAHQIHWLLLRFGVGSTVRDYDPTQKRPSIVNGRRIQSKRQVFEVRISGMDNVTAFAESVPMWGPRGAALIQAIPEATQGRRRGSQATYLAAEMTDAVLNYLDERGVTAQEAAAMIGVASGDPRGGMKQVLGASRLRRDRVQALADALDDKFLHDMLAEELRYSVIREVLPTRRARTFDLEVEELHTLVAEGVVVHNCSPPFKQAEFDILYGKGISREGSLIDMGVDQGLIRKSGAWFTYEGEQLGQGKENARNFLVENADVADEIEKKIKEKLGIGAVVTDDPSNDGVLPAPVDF
Arbovirus inh = antivirals against arbovirus infection, primary screen, cell-based, full library, 10K replicate subset; arbovirus infection cell-based antiviral screen; inhibition, % at 10 µM; 200,000 compounds, 0.37% hits; AID 1251, 2008;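 active means inhibition from about 30%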;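 further: bluetongue infection of BSR cells; cell survival read as ATP light after 72 h; 0% = infected wells without compound and 100% = uninfected wells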
Arbovirus inh repeat = further read-out of Arbovirus inh, marked with its call; inhibition, %; measured here: 10K subset replicate screen; many hits read low in the repeat;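 first of two repeat runs on a subset; 0% = infected and 100% = uninfected wells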
Starred values were filed as active, the others as inactive; ? = inconclusive; / = no result given.

Start of the listing, in advance, 2 compounds:
SMILES | Mtb growth | YopH PTP inh | Mtb betalactam | RecA splice inh | Arbovirus inh | others
Cc1c(Cl)cccc1NC(=S)N(CCN(C)C)C(C)c1ccccn1 (configuration not stated) | 6% | / | -1 | -1.6 | 18
COCCCNC(=O)CS(=O)Cc1nc(-c2cccc(OC)c2)oc1C (configuration not stated) | -4% | -24 | -2 | -0.3 | 0

The whole of this part, previewed entries included:
SMILES | Mtb growth | YopH PTP inh | Mtb betalactam | RecA splice inh | Arbovirus inh | others
Cc1c(Cl)cccc1NC(=S)N(CCN(C)C)C(C)c1ccccn1 (configuration not stated) | 6% | / | -1 | -1.6 | 18
COCCCNC(=O)CS(=O)Cc1nc(-c2cccc(OC)c2)oc1C (configuration not stated) | -4% | -24 | -2 | -0.3 | 0
O=C(NC1CC1)C1CCN(C(=O)c2ccc(Cl)cc2Cl)CC1 | / | / | 3 | -1.2 | /
COc1ccc(C(=O)n2cc(C(=O)c3cc(C)ccc3O)cn2)cc1OC | 7% | -42 | 4 | -2.0 | -1
CCc1c(C(=O)Nc2ccc(OC)c(Cl)c2)[nH]c(C)c1C(C)=O | 1% | -35 | 4 | 2.5 | -4
CCC(=O)Nn1c(C2CCC2)nc2ccccc2c1=O | / | / | -5 | 0.1 | /
COc1ccc(CC(=O)NNC(=O)COc2ccc(C)cc2)cc1S(=O)(=O)N1CCOCC1 | / | / | -7 | 2.3 | /
N=C1SC(c2ccccc2)C(=O)N1c1ncc(Cc2ccccc2)s1 (configuration not stated) | 26µM* | 3 | 73 | 0.8 | -11
COc1ccc2[nH]c3c(c2c1)CCN1C(=O)N([C@@H](C)C(=O)NCC2CCCO2)C(=O)[C@]31C (some centres not stated) | / | / | -1 | 4.1 | /
Cc1cc2ncn(C(=O)N3CCCCC3)c2cc1C | -1% | -48 | 2 | 1.7 | 2
Cn1cc(CN2CCN(Cc3ccccc3)C(CCO)C2)c(-c2ccccc2)n1 (configuration not stated) | -2% | / | -13 | -0.8 | 5
NC(=O)CNC(=O)[C@@H]1CC2(CC(c3cccc([N+](=O)[O-])c3)=NO2)CN1C(=O)c1ccccc1 (some centres not stated) | -15% | -32 | -4 | -1.1 | 5
O=C(/C=C/c1cccc([N+](=O)[O-])c1)Nc1cccc(NC(=O)c2cccs2)c1 | 13% | -2 | 89 | 4.3 | -32
Cc1cccc(C(C)C)c1NC(=O)CN1C(=O)NC2(CCc3ccccc32)C1=O (configuration not stated) | / | / | -13 | 0.7 | /
NC(=O)c1ccccc1NC(=O)/C=C/c1ccc(Cl)cc1 | -1% | -32 | 12 | -4.0 | 4
CCN(c1ccccc1)S(=O)(=O)c1ccc2ccccc2c1 | / | / | -3 | 12 | /
CC(=O)Nc1ccc(CC(=O)N2CCN(Cc3ccccc3)CC2)cc1 | / | / | -11 | -0.3 | /
COc1cc(C(=O)NC(=S)Nc2nccs2)cc(OC)c1OC | -8% | / | 2 | -2.3 | 19
COc1ccccc1OCC(=O)N1CCCCCCC1 | / | / | 2 | -0.2 | /
COc1ccccc1C(=O)N=C1NC(=O)CC2C(=O)NCCN12 (configuration not stated) | -7% | / | -5 | -1.4 | -5
Cc1ccc(NC2=NCC(=O)N2C2CCCC2)c(C)c1 | -4% | -22 | -16 | 6.3 | -4
COc1cccc(N2CCN(S(=O)(=O)c3ccc(CN4C(=O)c5cccnc5C4=O)cc3)CC2)c1 | / | / | 7 | -7.9 | /
CCOC(=O)c1sc(=S)n(-c2ccc(Cl)cc2)c1SC | -5% | -31 | -1 | -2.2 | -5
O=C1C2C(C(=O)N1/N=C/c1cc(Br)cc([N+](=O)[O-])c1O)C1C=CC2C12CC2 (configuration not stated) | 1% | -23 | 2 | 0.8 | 0
O=C(Nc1ccc(S(=O)(=O)Nc2ncccn2)cc1)c1ccc(Cl)c([N+](=O)[O-])c1 | / | / | -1 | 1.6 | /

The list goes on (two carried over from the part before).
SMILES | Mtb growth | YopH PTP inh | Mtb betalactam | RecA splice inh | Arbovirus inh | others
O=C1C2C(C(=O)N1/N=C/c1cc(Br)cc([N+](=O)[O-])c1O)C1C=CC2C12CC2 (configuration not stated) | 1% | -23 | 2 | 0.8 | 0
O=C(Nc1ccc(S(=O)(=O)Nc2ncccn2)cc1)c1ccc(Cl)c([N+](=O)[O-])c1 | / | / | -1 | 1.6 | /
COc1ccc(N=C2SCCCN2C)cc1 | -18% | -25 | 3 | -0.4 | 5
Cc1ccc(-c2cc(C(=O)OCC(=O)N(C)C3CCS(=O)(=O)C3)c3ccccc3n2)c(C)c1 (configuration not stated) | 1% | / | -8 | 1.9 | 10
COc1cc2c(-c3ccccc3)c(C)oc2cc1/C=N/NC(N)=S | / | / | -7 | -0.3 | /
COc1cc2c(cc1OC)C(c1ccccc1)N(C(=O)CCl)CC2 (configuration not stated) | 71% | -30 | 98 | 11 | -44
O=C(Nc1nc2ccccc2s1)c1ccc2c(c1)OCO2 | 6% | -17 | 16 | 6.3 | -21
CC1CCN(C(=O)CN(c2ccc3c(c2)OCO3)S(C)(=O)=O)CC1 | -8% | 35 | 0 | 2.0 | -7
COc1ccc2c(c1)CCc1cnc(N)nc1-2 | 70µM* | / | 90 | -0.4 | 0
CNS(=O)(=O)c1cccc(C(=O)NCC2CCCCC2)c1 | / | / | -4 | -1.5 | /
CCOc1cc(/C=C2/NC(=O)N(CC(=O)OC)C2=O)ccc1O | 0% | / | -1 | -4.6 | -5
Oc1ccc(N=Nc2cccc(C(F)(F)F)c2)cc1C=Nc1ccc(N2CCOCC2)cc1 | 2% | -23 | 8 | 2.1 | -27
Clc1ccc(C(c2nnnn2CCc2ccccc2)N2CCSCC2)cc1 (configuration not stated) | -6% | 18 | 7 | 3.4 | -5
Cc1ccsc1/C=N/NC(=S)NCCc1ccccc1 | 3% | / | -10 | 7.0 | -4
O=C(O)CCC(=O)NNC(=O)c1ccc(Br)cc1 | -13% | -28 | 9 | 0.6 | -4
Cn1ncc(Br)c1NC(=O)c1cc(Cl)cc(Cl)c1 | / | / | -6 | 0.4 | /
O=S(=O)(c1ccc(Cl)c(F)c1)N1CCC(c2nc(-c3ccncc3)no2)CC1 | -5% | -19 | 1 | 2.7 | -33
Cc1ccc(OCC(=O)N2CCOCC2)c([N+](=O)[O-])n1 | -5% | / | -7 | -1.2 | /
COCC1CCN(C(=O)c2cc(COc3ccc(-n4cncn4)cc3)on2)C1 (configuration not stated) | / | / | -1 | -0.8 | /
CC(=O)c1c(CC(=O)O)[nH]n(-c2nc3ccccc3s2)c1=O | 4% | -24 | 13 | 0.8 | -8
Cc1ccccc1CN(c1ccc(C(=O)NCC2CCCO2)cc1)S(C)(=O)=O (configuration not stated) | 4% | -18 | -4 | 0.6 | 5
CCOc1cc(S(=O)(=O)NCCc2ccc(OC)c(OC)c2)c(OCC)cc1-n1cnnn1 | 3% | -7 | -7 | 0.6 | 4
CCN(C(=O)CSc1nncn1-c1ccccc1)C1CCS(=O)(=O)C1 (configuration not stated) | / | / | 3 | -1.4 | /
CC(=O)c1cccc(NC(=O)C(C)OC(=O)CNC(=O)c2ccc(C)s2)c1 (configuration not stated) | -1% | / | 0 | 4.3 | 7
Cc1ccnc(NC(=O)CCCNC(=O)c2ccc(Cl)cc2)c1 | / | / | -2 | 3.6 | /
COc1ccc(N(CCCN2C(=O)c3cccc4cccc(c34)C2=O)C(=O)c2ccncc2)cc1 | 3% | / | -1 | 5.1 | 2
COc1cccc(CN2CCNCC2)c1 | / | / | -2 | -0.8 | /
Continued:
SMILES | Mtb growth | YopH PTP inh | Mtb betalactam | RecA splice inh | Arbovirus inh | others
COc1cc(N)c(Cc2nccc3cc(OC)c(OC)cc23)cc1OC | 4% | / | 0 | 46* | 1
COc1ccc(F)cc1C(=O)C1CCCN(Cc2ccc(Sc3nncn3C)o2)C1 (configuration not stated) | 5% | / | 3 | 2.5 | 0
Cc1nc(NCc2ccccn2)c2ccccc2n1 | -6% | 17 | -4 | -2.1 | 10
CC1(C)NC(=O)N(CC(O)COc2cccc(F)c2)C1=O (configuration not stated) | 9% | -13 | 31 | 1.0 | 2 | Arbovirus inh repeat=0
O=C(Nc1ccccc1)Nc1nc2ccccc2s1 | 3% | / | 2 | 15 | -5
Cc1ccccc1Cn1ccc(NC(=O)c2nn(C)cc2[N+](=O)[O-])n1 | 15% | -17 | -8 | -8.2 | -34
CN(C)c1ccc(/C=N/N2C(=O)c3ccccc3C2=O)cc1 | 2% | / | 2 | 0.3 | /
N#Cc1c(Cl)nsc1NC(=O)c1ccccc1 | -3% | / | -1 | -0.1 | -2
Cc1ccnc(SCc2cc(=O)c(OC(=O)c3ccco3)co2)n1 | 1% | -39 | 5 | -0.7 | -4
COc1ccc(CN2C(=O)CCC2(C)C(=O)NCc2cccnc2)c(OC)c1 (configuration not stated) | -8% | -9 | -2 | 0.5 | 0
CCOC(=O)N1CCN(Cc2nc3cc([N+](=O)[O-])ccc3n2CC)CC1 | / | / | -5 | -1.8 | /
Cc1ccccc1OCC(=O)Nc1ccccc1N1CCCCC1 | 16% | -40 | / | 32* | 2
Cc1cccn2c(=O)c(C=O)c(N3CC(C)OC(C)C3)nc12 (configuration not stated) | -3% | / | 2 | / | 3
CC(=O)NC(=S)Nc1ccc(NC(=S)NC(=O)c2ccc([N+](=O)[O-])cc2)cc1 | -8% | / | -10 | -0.9 | /
NC(=O)CC[C@H](NC(=O)c1ccc(F)cc1)C(=O)OCC(=O)NCc1ccc(F)cc1 | 0% | / | -2 | 3.8 | 6
O=C(COc1ccc(/C=N/NC(=O)c2ccc(O)cc2)cc1)Nc1ccc([N+](=O)[O-])cc1 | -2% | -11 | -3 | 2.8 | -1
Oc1ccccc1Nc1ccccn1 | 0% | / | -4 | -1.7 | /
NS(=O)(=O)c1cccc(NC(=O)COC(=O)c2cc(-c3ccc(Cl)cc3)nc3ccccc23)c1 | 8% | -21 | 69 | -1.7 | -6
CN1C(=O)C(=Cc2ccc(OCC(=O)Nc3ccccc3)cc2)C(=O)N(C)C1=O | / | / | -7 | 4.6 | /
CCC(=O)NC(=S)Nc1cccc(Cl)c1N1CCCC1 | 19% | / | 13 | -5.1 | 11
Oc1c(CN2CCCCC2)cc(COCc2ccccc2)c2cccnc12 | -10% | -64 | ? | 1.5 | -37
COc1ccc(-n2c(=S)[nH]c3cc(C(=O)NCc4cccnc4)ccc3c2=O)cc1 | / | / | 0 | 0.8 | /
O=C(NCCCN1CCOCC1)c1ccccc1 | -1% | -34 | -7 | -0.5 | 8
C[C@H](NC(=O)[C@@H]1Cc2ccccc2CN1)C(=O)NC[C@H]1CC[C@H](C(=O)O)CC1 | / | / | 6 | -1.4 | /
O=C(NCc1ccccc1)Oc1cccc(Cl)c1 | 2% | -16 | -10 | 1.0 | 1

Five entries picked at random from those above, as already listed:
SMILES | Mtb growth | YopH PTP inh | Mtb betalactam | RecA splice inh | Arbovirus inh | others
Cc1ccccc1OCC(=O)Nc1ccccc1N1CCCCC1 | 16% | -40 | / | 32* | 2
O=C(Nc1ccccc1)Nc1nc2ccccc2s1 | 3% | / | 2 | 15 | -5
Cc1cccn2c(=O)c(C=O)c(N3CC(C)OC(C)C3)nc12 (configuration not stated) | -3% | / | 2 | / | 3
Cc1nc(NCc2ccccn2)c2ccccc2n1 | -6% | 17 | -4 | -2.1 | 10
O=C(NCc1ccccc1)Oc1cccc(Cl)c1 | 2% | -16 | -10 | 1.0 | 1

(list continues)
SMILES | Mtb growth | YopH PTP inh | Mtb betalactam | RecA splice inh | Arbovirus inh | others
Cc1coc(NC(=O)CSc2nc(-c3ccc(Cl)cc3)cc(C(F)(F)F)c2C#N)n1 | -4% | -4 | -8 | -1.8 | 7
COC(=O)c1cc(OC)c(OC)cc1NC(=O)c1cc(OC)cc(OC)c1 | 3% | / | 2 | 0.3 | 4
Cn1c(CSCc2ccccc2)nnc1SCC(=O)Nc1ccc(C(=O)O)cc1 | -5% | / | 8 | -3.6 | 6
CCN=C(Nc1ccc(Cl)cc1)c1cccnc1 | -2% | -8 | -5 | -0.7 | 0
N#CCSc1nnc(CNc2ccc(F)cc2)o1 | -10% | -14 | -1 | 2.0 | -2
O=C1COc2ccc(C(=O)COC(=O)Cn3cnc4ccccc43)cc2N1 | -9% | -21 | 2 | / | -4
O=C(NC1CCCC1)c1cc(-c2ccc(Cl)c(Cl)c2)on1 | / | / | 15 | 1.9 | /
CCOc1ccc(C(=O)/C=C/Nc2ccc(S(=O)(=O)Nc3onc(C)c3C)cc2)cc1 | 2% | -27 | 9 | -7.3 | 14
CC(C)CCNC(=O)C1CCN(C(=O)N(C)C)CC1 | -13% | -13 | -10 | 0.2 | -1
O=C(O)C1CC(=O)N(Cc2ccc3c(c2)OCO3)C1 (configuration not stated) | 0% | -43 | -5 | -1.5 | -1

A portion of the library; the hit share may differ from the screen's.
